Beta2AR agonist – human beta-2 adrenergic receptor agonism by FAP. actives 0.43% (n = 340,000). P07550. response, % (concentration not given with the values). Am2.2-beta2AR cells, FAP receptor internalization, flow cytometry; reference of the scale not given here;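 active means response above a set limit, near 3 SD of response in nonfluorescent compounds, cut at about 42% in these data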;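 further: stock transfer was 100 nL into about 11 µL; a reference agonist was the positive control; negative values mostly stem from fluorescent compounds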
Target sequence (P07550 whole entry, looked up): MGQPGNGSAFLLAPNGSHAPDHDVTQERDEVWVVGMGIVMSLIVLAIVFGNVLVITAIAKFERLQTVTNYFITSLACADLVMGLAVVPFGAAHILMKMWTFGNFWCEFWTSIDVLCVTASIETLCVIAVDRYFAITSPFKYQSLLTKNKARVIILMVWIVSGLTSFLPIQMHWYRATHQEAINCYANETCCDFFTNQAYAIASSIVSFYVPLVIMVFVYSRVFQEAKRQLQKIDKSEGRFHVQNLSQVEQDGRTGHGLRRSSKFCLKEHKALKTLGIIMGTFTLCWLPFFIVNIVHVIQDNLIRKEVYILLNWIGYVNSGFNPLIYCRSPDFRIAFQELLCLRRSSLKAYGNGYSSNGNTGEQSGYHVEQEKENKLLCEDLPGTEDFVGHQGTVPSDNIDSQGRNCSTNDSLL
A1 inh – inhibitors of the anti-apoptotic protein A1, read as caspase activation; caspase activation, % (concentration not given with the values); AID 2462; MEF A1-2A-BIM cells, Caspase-Glo 3/7 luminescence, 3 h; percent of clofoctol response, vehicle zero; actives 0.066% (n = 330,000);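 active means over half of replicate activation scores above 10%, or exactly half above 10 with the replicate mean above 10; inconclusive means replicate mean below 10 yet half the replicates above 10; inactive means over half of replicates below 10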;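 further: wells of about 30 µL received 50 nL stock; many hits fall short of the cut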
Calb FLC – C. albicans growth modulation with fluconazole. C. albicans CaCi-2 (fluconazole-resistant clinical isolate) + fluconazole, Alamar Blue growth, 48 h. growth inhibition, % (no concentration beside the values). actives 0.57% (n = 300,000). AID 1979;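 active means most replicates above 75%; inconclusive means exactly half above 75%; inactive means most below 75%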;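 further: all wells also contain fluconazole at 8 µg/ml as a sub-toxic cotreatment; 0% = median of DMSO wells and 100% = median of geldanamycin control wells; wells of about 8 µL received 7.5 nL stock; the first replicate is given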
LANA-H2A inh – blocks KSHV LANA binding to histone H2A/H2B; cell-free LANA-H2A/H2B peptide, fluorescence polarization; Q9QR71; inhibition, % (test concentration not listed); actives 0.6% (n = 320,000); in the data active means inhibition mostly above about 10%, no sharp cut-off; inactive means mostly below about 6.7%;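 further: stock transfer was 7.5 nL into about 10 µL; 0% = median of vehicle wells and 100% = median of positive control wells; one replicate is shown; the record names a cut of 25% in any replicate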
RanGTP-Impb inh – inhibitors of RanGTP-importin-beta interaction, primary screen, biochemical, FRET, CFP-Ran, YFP-importin-beta, homogeneous. cell-free CFP-Ran/YFP-importin-beta FRET ratio. actives 1.1% (n = 300,000). inhibition, % (concentration not given with the values);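 active means most replicates above 15%; inconclusive means exactly half above 15%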;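 further: 0% = DMSO wells and 100% = Ran loaded with GDP instead of GTP; wells of about 40 µL received 100 nL stock; the first replicate is given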
UCH37 DUB inh – inhibitors of human deubiquitinating enzyme UCH37; inhibition, % (concentration not given with the values); actives 0.33% (n = 330,000); AID 588478; purified proteasome/UCH37, Ub-AMC cleavage fluorescence;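 active means mean of two replicates above 20%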;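 further: 0% = compound-free wells with enzyme and 100% = wells lacking proteasome; stock transfer was 100 nL into about 20 µL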
Target sequence (Q9Y5K5 whole entry, looked up): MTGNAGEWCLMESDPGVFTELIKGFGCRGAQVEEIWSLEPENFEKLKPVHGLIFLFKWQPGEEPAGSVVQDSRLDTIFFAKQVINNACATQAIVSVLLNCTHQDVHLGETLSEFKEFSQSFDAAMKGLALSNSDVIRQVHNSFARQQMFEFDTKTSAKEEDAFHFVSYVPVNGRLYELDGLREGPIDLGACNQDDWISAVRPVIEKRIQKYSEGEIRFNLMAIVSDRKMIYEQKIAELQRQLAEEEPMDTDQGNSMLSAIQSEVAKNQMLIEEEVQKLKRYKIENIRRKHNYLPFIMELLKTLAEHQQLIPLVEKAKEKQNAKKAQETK
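Reagent: Ub-AMC substrate; assay system: Proteasome-associated human UCH37 deubiquitinase; controls: no-proteasome and no-compound wells; read-out: % inhibition of Ub-AMC cleavage fluorescence; timing: 30 min preincubation with enzyme, 25 min cleavage at room temperature; signal: AMC fluorescence from Ub-AMC cleavage, excitation 355 nm, emission 460 nm; buffer or medium: Tris-HCl pH 7.4 plus ovalbumin, ATP-MgCl2, DTT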
Beta apoptosis – blocks beta cell apoptosis. INS-1E cytokine-induced death, ATP luminescence, 48 h; percent of positive-control rescue, neutral wells zero. protection from apoptosis, % (concentration not given with the values). actives 0.8% (n = 300,000);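 active means all replicates at 75% or more, or half of them and the mean; inconclusive means half reach 75% but not the mean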;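 further: 0% = cytokine-treated negative control wells and 100% = positive control rescue; higher means more ATP so stronger rescue from cytokine killing; wells of about 40 µL received 100 nL stock; the first replicate is given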
T cruzi repl – T. cruzi replication inhibition; T. cruzi beta-gal in NIH3T3, luminescence, 90 h; inhibition, % (concentration not given with the values); actives 1.4% (n = 300,000); AID 1885;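 active means mean inhibition across valid replicates above about 55%, limit read from the data; inconclusive means mean below that limit but half or more replicates reach it; inactive means mean below it, under half of replicates reach it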;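 further: signal also drops with host cell toxicity which is not excluded here; 0% = plate median of DMSO wells and 100% = zero luminescence signal; higher percent means less beta-gal luminescence so fewer parasites; stock transfer was 50 nL into about 50 µL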
* hit, by the source's call; u = inconclusive; x = not tested or not shown. Not a hit list. Share with any hit: about 4.3%.

Start of the listing, in advance:
SMILES	Beta2AR agonist	A1 inh	Calb FLC	LANA-H2A inh	RanGTP-Impb inh	UCH37 DUB inh	Beta apoptosis	T cruzi repl
CC(c1ccccc1)C1C(C#N)=C(N)OC2=C1C(=O)CCC2 (stereo not given)	-11	-0.3	-1	-1.4	1.4	2.1	-9	0
O=C(c1cc(Cl)c(=O)n(Cc2ccc(Cl)cc2)c1)N1CCOCC1	7	0.0	-10	-2.2	1.4	1.1	4	-8

Main list, repeating the preview:
SMILES	Beta2AR agonist	A1 inh	Calb FLC	LANA-H2A inh	RanGTP-Impb inh	UCH37 DUB inh	Beta apoptosis	T cruzi repl
CC(c1ccccc1)C1C(C#N)=C(N)OC2=C1C(=O)CCC2 (stereo not given)	-11	-0.3	-1	-1.4	1.4	2.1	-9	0
O=C(c1cc(Cl)c(=O)n(Cc2ccc(Cl)cc2)c1)N1CCOCC1	7	0.0	-10	-2.2	1.4	1.1	4	-8
COc1ccc(/C=C/C(=O)NC(=S)Nc2ccc(N3CCN(C(C)=O)CC3)cc2)cc1	28	0.2	1	2.6	-0.2	7.8	-4	-13
Cc1ccc(CN2C(=O)[C@H]3Cc4c([nH]c5ccccc45)C(C)(C)N3C2=O)cc1	-6	0.1	2	1.0	-0.6	4.1	4	8
Cc1c(Br)c([N+](=O)[O-])nn1CC(=O)NCCc1c[nH]c2ccccc12	-6	0.5	-5	0.4	-0.1	4.6	3	41
Cc1nc2cc(C(=O)OCC(=O)N(CC(C)C)C3CCS(=O)(=O)C3)ccc2n1-c1ccccc1 (stereo not given)	-1	0.2	30	-0.8	0.8	4.7	2	-2
CCn1c(SC)nnc1-c1c[nH]c2ccccc12	8	0.8	3	-0.6	-1.9	3.0	0	-5
CCOc1cc(C(=S)N2CCOCC2)ccc1OC(=O)/C=C/c1ccc(OC)c(OC)c1	13	1.1	1	-5.7	-1.9	-1.7	-1	4
COc1ccc(C2C(C#N)=C(N)OC3=C2C(=O)CC(C)(C)C3)cc1OC (stereo not given)	-3	-0.2	u	0.3	-0.2	2.4	0	-1
O=C1CC(c2cccc(Cl)c2)Cc2nc(N3CCN(c4ccccc4)CC3)ncc21 (stereo not given)	-16	-0.6	-6	3.4	-5.7	-0.9	-21	-13
COc1ccccc1NC(=O)c1oc2ccccc2c1NC(=O)c1cc(OC)c(OC)c(OC)c1	9	-0.4	8	-0.5	0.0	-141	9	-19
CCCn1c(N)c(N(CCOC)C(=O)c2ccc([N+](=O)[O-])c(C)c2)c(=O)[nH]c1=O	2	-0.5	-2	6.0	-0.2	2.6	-5	-5
Cc1nn(C)c(Cl)c1/C=N/OC(=O)c1ccccc1	1	-0.6	-4	1.6	-2.3	x	2	9
O=C(c1cc([N+](=O)[O-])ccc1N1CCCCC1)N1CCCCC1	-8	-0.9	-7	-2.3	0.4	11	-7	2
Cc1nccc2[nH]c(=O)c(C(=O)NC3CCCCC3C)cc12 (stereo not given)	-3	0.2	-5	2.2	0.1	1.4	-9	45
CCN1CCN(c2ccc(NC(=O)c3ccc(C#N)cc3F)cc2Cl)CC1	0	0.0	-6	-2.0	-1.2	5.7	-4	23
Cc1cccc(/C=N/NC(=O)CNc2cccc3ccccc23)n1	-21	-0.3	27	-2.5	-1.0	x	0	0
Cc1cccc(NC(=S)NC(NC(=O)c2ccco2)C(Cl)(Cl)Cl)c1 (stereo not given)	8	-0.2	-17	0.0	2.4	1.3	-20	-15
COc1ccc(C2c3[nH]c4ccccc4c3C[C@H]3C(=O)N(C4CCN(Cc5ccccc5)CC4)CC(=O)N23)cc1OC (stereo not given in full)	0	0.1	-2	-0.8	1.3	3.4	9	25
CC(C)C[C@@H](C(=O)O)N(Cc1cccc(CN([C@@H](CC(C)C)C(=O)O)S(C)(=O)=O)c1)S(C)(=O)=O	0	0.9	8	-5.5	3.8	1.3	-1	-14
COc1ccccc1NS(=O)(=O)c1cccc(NC(=O)C2CC(=O)N(Cc3ccccc3)C2)c1 (stereo not given)	8	-0.3	2	0.3	-0.9	-2.4	3	-1
O=C(NCc1ccncc1)c1ccccc1Nc1ccc(SC(F)F)cc1	-10	0.7	-4	-2.2	0.6	4.8	4	12
CC(C)CCNC(=O)c1ccc2c(Cl)c3c(nc2c1)CCC3	-1	-4.2	24	-4.5	3.1	2.4	1	-8
O=C(NNC1=NS(=O)(=O)c2ccccc21)c1ccccc1Cl	19	0.3	17	0.9	0.6	0.4	2	-7
COCCNC(=O)C1c2cc(OC)c(OC)cc2C(=O)N(C)C1c1cccnc1 (stereo not given)	-1	0.8	-5	7.6	1.5	-1.1	-4	-16
COCCCN1C(=O)C(=O)/C(=C(/O)c2ccc(OC(C)C)c(C)c2)C1c1ccncc1 (stereo not given)	10	0.8	-6	4.8	-0.7	0.8	0	-7
CC(C)(C)NS(=O)(=O)NC(=O)C1=C(N2CCCC2)COC1=O	-5	-1.7	x	-3.7	x	-5.3	-8	x
COc1ccccc1OCC(=O)Nc1sc2c(c1C(=O)NCC1CCCO1)CCC2 (stereo not given)	-7	0.1	7	-3.0	-0.7	0.6	6	31
Cc1cc(C(=O)CN2C(=O)C(=O)N(CC(C)C)C2=O)c(C)n1C1CC1	-2	-0.1	x	0.3	x	2.2	-1	x
CCN(CC(=O)Nc1ccc(NC(C)=O)cc1)C(=O)/C=C/c1cn(Cc2ccccc2)nc1-c1cccnc1	8	-0.3	-8	x	0.7	3.5	0	-4
O=C(NC12CC3CC(CC(C3)C1)C2)c1cccnc1	-12	0.2	-9	-2.0	4.5	4.2	-6	-4
Cc1cc(C)n(C(=O)CNc2ccccc2Cl)n1	0	-2.6	8	0.5	7.3	-0.9	-1	-12
Cc1cccc(CC(=O)N2CCC(n3nccc3NC(=O)C3CC3)CC2)c1	-6	1.7	2	-3.6	-5.4	5.2	-1	-15
NC(=O)CC(NC(=O)Cc1ccc(Br)cc1)c1ccc(NCCc2ccc(Cl)cc2)c([N+](=O)[O-])c1 (stereo not given)	1	x	-3	x	7.1	x	x	-19
Cc1ccccc1NC(=O)COC(=O)c1cc(S(=O)(=O)N2CCOCC2)ccc1C	-8	0.9	x	4.4	x	2.1	0	x
CC(C)(C)NC(=O)CSc1nc(O)cc(=O)n1-c1ccccc1	6	0.0	1	0.4	4.0	1.2	-10	-5
CCCCS(=O)(=O)Nc1ccc2ncn(C)c(=O)c2c1	-14	-0.3	-4	-2.4	2.4	-38	-5	-5
O=C(Oc1coc(CSc2ncccn2)cc1=O)c1ccc(Br)o1	-11	0.0	-24	x	8.2	4.7	-5	-5
O=C(NC1CCN(C(=O)NCc2ccccc2)CC1)c1cccc(F)c1	9	0.0	-2	8.6	-1.5	-0.8	4	-10
CCOc1ccc(NC(=O)c2c(OC)cccc2OC)cc1	-6	-0.6	-6	-0.7	0.7	2.4	1	-14
Cc1nnc(SCCCn2c(N3CCCCC3)nc3c2c(=O)[nH]c(=O)n3C)s1	-25	0.2	24	-1.2	4.8	4.9	2	-24
O=C(Nc1ccccc1)C1CCN(C(=O)c2ccccc2)CC1	1	0.1	-2	0.6	0.1	2.1	-3	7
Cc1onc(-c2ccccc2Cl)c1C(=O)Nc1ccc(-c2nnc3n2CCCCC3)cc1	18	0.2	2	-6.6	6.0	-0.4	x	19
O=C(Nc1ccccc1Cc1ccccc1)c1ccccc1NS(=O)(=O)c1ccc(Cl)s1	21	-0.4	u	0.4	-1.7	4.0	47	-3
COC(=O)c1ccccc1NC(=O)Nc1ccc2c(c1)OCO2	-3	0.1	0	-4.3	-3.4	-0.4	-1	3
COc1cc(C)c(C(N)=O)c(OC)n1	-7	-0.2	4	1.3	6.2	3.1	-6	-6
C[C@H](CO)N1C[C@H](C)[C@@H](CN(C)S(=O)(=O)c2cccs2)Oc2ccc(NS(=O)(=O)c3ccccc3)cc2C1=O	0	1.2	x	-2.9	x	3.5	6	x
O=C1C(C=NCc2ccccn2)=C(O)c2ccccc21	-6	-3.0	6	4.0	5.1	7.8	-4	-11
CCc1ccc(N(CC(=O)NCc2cccnc2)S(=O)(=O)c2ccccc2)cc1	-10	0.5	-18	1.5	0.8	4.3	4	-17
FC(F)(F)c1nc2ccccc2nc1N/N=C/c1ccc(Cl)cc1	13	-0.3	-2	1.9	3.4	x	7	x
O=C(NCCCCNC(=O)C1CCCC1)C1CCCC1	1	-0.2	-12	-2.8	-0.7	4.5	2	-6
O=C1CC(C(=O)N(c2ccccc2)C(C(=O)NC2CCCC2)c2ccncc2)CS1 (stereo not given)	15	1.0	32	-3.6	x	-1.6	-2	7
CN(NS(=O)(=O)c1ccc(Cl)cc1)c1cnn(C)c(=O)c1Cl	1	-0.3	-1	0.6	-6.5	3.8	-1	-13
Nc1nc(Br)c2c(F)cccc2c1-c1ccccc1	-2	0.1	2	4.8	x	x	-11	-10
Cn1c(COc2ccc(F)cc2)nc2ccccc21	-11	-4.9	2	0.8	-0.8	1.8	0	20
CCN(CC)CCN(Cc1cc2cc(C)ccc2[nH]c1=O)C(=S)Nc1ccccc1	1	-0.8	48	2.7	-0.5	-1.6	0	1
Cc1nnc(SC(C)C(=O)Nc2nccs2)s1 (stereo not given)	4	-0.4	-20	2.4	x	-0.5	0	-7

Exported bar-delimited: 11 of the compounds above
smiles | Beta2AR agonist | A1 inh | Calb FLC | LANA-H2A inh | RanGTP-Impb inh | UCH37 DUB inh | Beta apoptosis | T cruzi repl
COc1ccccc1OCC(=O)Nc1sc2c(c1C(=O)NCC1CCCO1)CCC2 (stereo not given) | -7 | 0.1 | 7 | -3.0 | -0.7 | 0.6 | 6 | 31
Cc1cc(C(=O)CN2C(=O)C(=O)N(CC(C)C)C2=O)c(C)n1C1CC1 | -2 | -0.1 | x | 0.3 | x | 2.2 | -1 | x
CCN(CC(=O)Nc1ccc(NC(C)=O)cc1)C(=O)/C=C/c1cn(Cc2ccccc2)nc1-c1cccnc1 | 8 | -0.3 | -8 | x | 0.7 | 3.5 | 0 | -4
O=C(NC12CC3CC(CC(C3)C1)C2)c1cccnc1 | -12 | 0.2 | -9 | -2.0 | 4.5 | 4.2 | -6 | -4
Cc1cc(C)n(C(=O)CNc2ccccc2Cl)n1 | 0 | -2.6 | 8 | 0.5 | 7.3 | -0.9 | -1 | -12
Cc1cccc(CC(=O)N2CCC(n3nccc3NC(=O)C3CC3)CC2)c1 | -6 | 1.7 | 2 | -3.6 | -5.4 | 5.2 | -1 | -15
NC(=O)CC(NC(=O)Cc1ccc(Br)cc1)c1ccc(NCCc2ccc(Cl)cc2)c([N+](=O)[O-])c1 (stereo not given) | 1 | x | -3 | x | 7.1 | x | x | -19
Cc1ccccc1NC(=O)COC(=O)c1cc(S(=O)(=O)N2CCOCC2)ccc1C | -8 | 0.9 | x | 4.4 | x | 2.1 | 0 | x
CC(C)(C)NC(=O)CSc1nc(O)cc(=O)n1-c1ccccc1 | 6 | 0.0 | 1 | 0.4 | 4.0 | 1.2 | -10 | -5
CCCCS(=O)(=O)Nc1ccc2ncn(C)c(=O)c2c1 | -14 | -0.3 | -4 | -2.4 | 2.4 | -38 | -5 | -5
O=C(Oc1coc(CSc2ncccn2)cc1=O)c1ccc(Br)o1 | -11 | 0.0 | -24 | x | 8.2 | 4.7 | -5 | -5

Compound activity deposited in PubChem by several laboratories.
